HCMV UL50-53 inh – disrupts HCMV UL50-UL53 complex binding | 190,000 compounds, 0.15% hits | HTRF UL50-UL53 interaction, normalized percent inhibition | inhibition, % (concentration not given with the values);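 active means both replicates at 50% or more, plus weaker picks with an unusually low signal ratio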;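 further: stock transfer was 100 nL into about 20 µL; 0% = negative control wells and 100% = wells with untagged competitor protein; inactives centre near -12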
GIV-Gai inh – inhibitors of GIV GBA-motif binding to rat Galpha-i3; Galpha-i3/FITC-GIV peptide fluorescence polarization, 90 min; stronger effect = lower value; scaled: aluminum fluoride 0%, vehicle 100%; percent of control (FP), % (no concentration beside the values); AID 1224905; P08753; 210,000 compounds, 0.42% hits;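 active means replicate mean at 85% of control or lower, very high polarization wells dropped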;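 further: wells of about 15 µL received 100 nL stock; the first replicate is given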
Target sequence (P08753 whole entry, looked up): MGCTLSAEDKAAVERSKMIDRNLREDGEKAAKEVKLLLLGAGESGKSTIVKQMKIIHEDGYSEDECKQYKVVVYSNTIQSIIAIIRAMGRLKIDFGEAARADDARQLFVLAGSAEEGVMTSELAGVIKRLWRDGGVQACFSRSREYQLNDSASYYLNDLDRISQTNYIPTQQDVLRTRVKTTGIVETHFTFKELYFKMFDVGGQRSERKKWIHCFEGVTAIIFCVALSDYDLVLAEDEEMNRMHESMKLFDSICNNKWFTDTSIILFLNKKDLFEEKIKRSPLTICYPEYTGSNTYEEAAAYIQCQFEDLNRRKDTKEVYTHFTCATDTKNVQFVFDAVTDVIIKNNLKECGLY
Sa growth inh – S. aureus growth inhibition; S. aureus RN4220 growth, OD600, 20 h, 42 °C; stronger effect = lower value; relative growth, % (concentration not given with the values); 170,000 compounds, 0.53% hits;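 active means growth at 42 °C up to 50% and 20 or more points under that at 30 °C, or under 10% at both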;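 further: 300 nL library stock went into each well; scaled to the means of positive and negative controls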
Sa growth inh second temp – second read-out of Sa growth inh, no call of its own (marks repeat the call); relative growth, %; measured here: growth at 30 °C;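 optical density after 20 h as mean of two plates; 100% = untreated growth and lower means inhibition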
* marks the source's active call; other numbers are inactive results; · = no result given; & = joins results of further samples.

SMILES	HCMV UL50-53 inh	GIV-Gai inh	Sa growth inh	Sa growth inh second temp
CN1CCC(N(C)C(=O)/C(=C/c2ccc(Cl)cc2)c2ccc(F)cc2)CC1	-47	·	125	90
O=C(CSc1nnc(-c2ccccc2F)o1)N1CCc2ccccc21	-5	103	97	91
O=C(NCCCN1CCN(c2ccc(F)cc2)CC1)C1CCCN(c2nc3cccnc3s2)C1 (stereo not given)	-15	104	·	·
COc1ccc(NC(=O)C2CCCN(c3nc4ccccc4nc3C(F)(F)F)C2)cc1Cl (stereo not given)	-8	104	·	·
CC(=O)c1ccc(N2CCN(c3ncnc4c3nc3n4CCCC3)CC2)cc1	·	108	124	95
Cc1nn(-c2ccccc2)c2nc(-c3cccs3)cc(C(=O)OCC(=O)N3CCCC3)c12	-9	·	97	82
CN(C)S(=O)(=O)c1ccc(Nc2nc3ccccc3n3nnnc23)cc1	-4	102	95	91
O=C1COc2ccccc2N1Cc1ccc(OC(F)(F)F)cc1	-5	99	100	118
O=C(NCC(c1cccnc1)N1CCc2ccccc2C1)C(=O)Nc1ccc2c(c1)OCCO2 (stereo not given)	-6	108	·	·
O=C(COC(=O)c1cccc2ccccc12)Nc1ccccc1Cl	8	·	104	93
CCc1ccc(COC(=O)c2nnn(-c3ccc(C)c(Cl)c3)c2C)cc1	-29	104	·	·
Cc1cccc(NC(=O)CN2N=NC3C(=O)N(c4cccc(Cl)c4)C(=O)C32)c1C (stereo not given)	-5	103	86	87
CC1CCc2c(C(=O)Nc3nccs3)csc2C1 (stereo not given)	-18	·	130	72
CC(C)CN(C(=O)c1ccncc1)c1nc2ccccc2s1	-7	·	120	105
CC1(C)N=C(c2ccccc2)C(=O)N1CC(=O)Nc1ccccc1	·	99	126	94
CCn1c(SCc2ccccc2C)nc(=O)c2c(C(=O)OC)cc(C3CC3)nc21	·	100	39	46
CC1(C(=O)c2ccccc2)C2c3cc(Br)ccc3OC(=O)C21C(=O)N1CCCCC1 (stereo not given)	·	101	111	90
Cc1cc2occ(CC(=O)N(C)C)c2cc1Cl	-9	101	109	90
NS(=O)(=O)c1ccc(CCNC(=O)c2ccc(Cn3c(=O)[nH]c4ccccc4c3=O)cc2)cc1	·	105	119	90
Nc1nc(C2COc3ccccc3O2)ncc1S(=O)(=O)c1ccccc1 (stereo not given)	15	104	101	96
Cc1ccc(CNC(=O)c2cn(C)c3ccc(S(=O)(=O)N4CCOCC4)cc3c2=O)cc1	16	106	95	104
Cc1ccc(CNC(=O)c2ccc3oc(=O)n(Cc4ccccc4)c3c2)cc1	·	105	96	92
Cc1cc(C)cc(C(=O)NCCc2csc(-c3ccc(C(F)(F)F)cc3)n2)c1	·	104	103	93
N#CCCN(Cn1nnc2ccccc21)c1ccccc1	-40	101	91	85
CN(C)c1nc(OC(C(F)(F)F)C(F)(F)F)nc(N(c2ccccc2)c2ccccc2)n1	3	·	103	95

Next section
SMILES	HCMV UL50-53 inh	GIV-Gai inh	Sa growth inh	Sa growth inh second temp
CC(C)(C)NC(=O)CSc1ncnc2c1cnn2-c1ccccc1	5	·	99	88
Cc1cc(CNC(=O)NCC(C)C)c(C)n1-c1cccc(Cl)c1	-2	105	·	·
COc1ccc(Nc2nc3c(C)cccn3c(=O)c2C=NCc2ccccc2)cc1	·	101	104	89
O=C(O)CN1C(=O)c2cccc3cccc1c23	-37&-27&-80	99	·	·
CCC1CCc2nc3sc(C(=O)Nc4cccc(C(F)(F)F)c4)c(N)c3cc2C1 (stereo not given)	-7	106	98	108
Brc1ccc(CSc2ccc(-c3ccco3)nn2)cc1	-28	102	81	72
Cc1cc(N(C)C)n2nc(Cc3ccccc3)nc2n1	-20	101	81	75
Cc1noc(C)c1S(=O)(=O)N1CCCC1c1ccco1 (stereo not given)	-35	100	·	·
CC(=O)N1CCC(N(C(=O)Nc2cccc(Br)c2)C(C)C)CC1	-13	103	99	84
CCNC(=O)c1c(NC(=O)COc2ccc(F)cc2)sc2c1CCCC2	-43	105	94	87
COc1ccc2nc(NC(=O)c3ccc(S(=O)(=O)N4CCc5ccccc5C4)cc3)sc2c1	-14	107	·	·
CC(=O)Nc1cccc2nsnc12	-74	102	90	87
CC1Cc2ccccc2N1C(=O)/C=C/c1cccs1 (stereo not given)	-18	·	80	82
COc1cc2oc(=O)c(CC(=O)NCCc3ccccc3)c(C)c2cc1Cl	-37	95	84	84
CCN(C(=O)C1CCCN1S(=O)(=O)c1ccc2c(c1)n(C)c(=O)c(=O)n2C)c1ccccc1 (stereo not given)	-20	100	87	84
NC(=O)c1nn(CC(=O)N2CCCC2c2ccc3c(c2)OCCCO3)c(=O)c2ccccc12 (stereo not given)	-25	·	97	83
Cc1cccc(NC(=O)CN2C(=O)C(c3ccc(F)cc3)=NC23CCCCCC3)c1	7	102	101	84
CN1C(=O)C(C(N)=O)=C(N)C12CCCC2	7	·	100	93
CCOc1ccc(N(CC)S(=O)(=O)N2CCCC(C(=O)NCCc3ccc(OC)cc3)C2)cc1 (stereo not given)	-14	98	106	84
Fc1ccc(OCc2nnc3sc(-c4ccc(F)cc4)nn23)cc1	-6	107	·	·
Cc1cc(C)cc(S(=O)(=O)N2CCN=C2N2CCN(c3ccccc3Cl)CC2)c1	-26	107	·	·
Brc1cc2c(cc1CSc1nnc(Cc3ccccc3)o1)OCO2	-36	·	110	102
CCCN(CCC)C(=O)CSc1ccc(C)cc1	-8	104	103	98
C(=N\NC1=NCCCCC1)/c1cn(-c2ccccc2)nc1-c1cccnc1	-67	·	75	55
CC1=C(C#N)C(NC(=O)c2ccncc2)(C(F)(F)F)C(=O)N1 (stereo not given)	-14	108	103	94

(list continues)
SMILES	HCMV UL50-53 inh	GIV-Gai inh	Sa growth inh	Sa growth inh second temp
CN(C)c1ccc(CNC(=O)Cn2ccc3cc(S(=O)(=O)N4CCCCCC4)ccc32)cc1	·	98	89	96
O=C(Nc1nnc(S(=O)(=O)N2CCCCCC2)s1)c1ccccc1Cl	-23	100	112	76
COc1ccc(CNC(=O)CCS(=O)(=O)c2cc3c4c(c2)CCN4C(=O)CC3)cc1OC	·	104	84	86
Cc1ccc(NC(=O)Nc2nnc(N(C)C3CCCCC3)s2)c(Cl)c1	9	102	91	93
Cc1cccc(C2CCCN2S(=O)(=O)c2cnc[nH]2)c1 (stereo not given)	-25	102	·	·
CCS(=O)(=O)c1ncc(Cl)c(C(=O)Nc2sc3c(c2C(=O)OC)CCCC3)n1	9	99	·	·
COc1ccc2c(c1)CCc1c(C(=O)Nc3cc(Cl)ccc3O)noc1-2	-22	106	·	·
CCCSCCCNC(=O)c1ccc2nc(Cc3ccccc3)oc2c1	·	97	74	84
Cc1cccc(-c2noc(CSc3ccc(-c4ccccc4)nn3)n2)c1	-5	107	·	·
O=C(Cc1csc2ccccc12)N1CCN(C(=O)Nc2ccc3c(c2)OCCO3)CC1	-6	99	·	·
CC(C)(C)C/C(=N/O)c1ccccc1	7	103	98	125
O=C(CSc1ccccc1Cl)Nc1ccc(N2CCOCC2)cc1	-6	·	107	82
COc1ccc(OC)c(C2C(C(=O)Nc3ccc(C)cc3)=C(C)Nc3nnnn32)c1 (stereo not given)	·	111	132	102
CCOC(=O)/C(C#N)=N\Nc1cc(C)cc(C)c1	1	103	123	78
Cc1ccc(NC(=O)N2Cc3cccn3-c3cccnc32)c(C)c1	-15	103	79	77
COc1ccc(-c2noc(CSc3ccc(-c4ccccc4)nn3)n2)c(OC)c1	-12	105	·	·
O=C(CSc1nnc2c(n1)CCCC2)c1ccc2c(c1)OCCO2	-3	98	99	81
O=C(O)CCCN1C(=O)CCC1=O	-18	100	88	79
Cc1cccc(N2CCN(C(=O)Cn3c(=O)[nH]c4ccsc4c3=O)CC2C)c1 (stereo not given)	-13	98	89	90
CN(C)c1nc(SCCOC(=O)c2ccccc2)nc(N(C)C)n1	-12	102	·	·
c1ccc2[nH]c(NC3=NCCCCC3)nc2c1	-20	·	119	88
Cc1ccc(S(=O)(=O)c2nc(S(C)(=O)=O)sc2N(C)C)cc1	-8	109	113	89
CCC(Sc1nc2c(sc3ccccc32)c(=O)n1CCc1ccccc1)C(=O)N1CCOCC1 (stereo not given)	·	103	112	93
O=C(CN1C(=O)C2CCCC2=Nc2ccccc21)Nc1cc(F)ccc1F (stereo not given)	6	102	·	·
S=c1[nH]nc(-c2ccccc2)n1CC1CCCO1 (stereo not given)	-27	107	109	103

Grouped by structure: the entries above with an NH in an aromatic ring (5)
SMILES	HCMV UL50-53 inh	GIV-Gai inh	Sa growth inh	Sa growth inh second temp
NS(=O)(=O)c1ccc(CCNC(=O)c2ccc(Cn3c(=O)[nH]c4ccccc4c3=O)cc2)cc1	·	105	119	90
Cc1cccc(C2CCCN2S(=O)(=O)c2cnc[nH]2)c1 (stereo not given)	-25	102	·	·
Cc1cccc(N2CCN(C(=O)Cn3c(=O)[nH]c4ccsc4c3=O)CC2C)c1 (stereo not given)	-13	98	89	90
c1ccc2[nH]c(NC3=NCCCCC3)nc2c1	-20	·	119	88
S=c1[nH]nc(-c2ccccc2)n1CC1CCCO1 (stereo not given)	-27	107	109	103

As entered above.
GIV-Gai inh with COc1ccc(CNC(=O)CCS(=O)(=O)c2cc3c4c(c2)CCN4C(=O)CC3)cc1OC → 104
HCMV UL50-53 inh with Cc1ccc(S(=O)(=O)c2nc(S(C)(=O)=O)sc2N(C)C)cc1 → -8

(cont.)
SMILES	HCMV UL50-53 inh	GIV-Gai inh	Sa growth inh	Sa growth inh second temp
CC(=O)Nc1cccc(C2=Nc3ccccc3SC(c3ccccc3)C2)c1 (stereo not given)	·	102	78	49
CCc1ccc(NC(=O)C(=O)NCC(c2cccnc2)N2CCN(c3ccc(F)cc3)CC2)cc1 (stereo not given)	8	105	83	93
O=C(NC1CC1)c1cc(-c2cccnc2)on1	-12	106	·	·
O=C(c1cccc(C(F)(F)F)c1)N1CC(=O)N(CCc2ccccc2)C(=O)C1	·	99	102	88
Cc1ccc2[nH]c3c(c2c1)C[N+](C)(Cc1ccccc1)CC3 (stereo not given)	·	98	96	85
Cc1ccc2scc(N3CCCCC3)c(=O)c2c1	·	103	107	71
COC(=O)c1cc(-c2cccs2)on1	-29	104	104	102
Cc1ccc(NC(=O)CSc2ncccc2C(=O)Oc2ccccc2Cl)cc1Cl	·	105	120	87
COc1ccc(C2CC(=O)C3=C(C2)Nc2ccccc2NC3c2cc(OC)c(OC)c(OC)c2)cc1 (stereo not given)	-30	98	·	·
Cc1ccc(-c2onc(C)c2C)cc1S(=O)(=O)Nc1ccccn1	·	96	103	88
COc1ccc(Cn2c(CCC(=O)Nc3cccc(Cl)c3)nc3cccnc32)cc1	6	101	99	99
O=C(O)COc1ccc(-c2nc3ccccc3s2)cc1	-41	98	117	76
O=C(NCc1ccccc1)C1CCCN(C(=O)N2CCOc3ccccc32)C1 (stereo not given)	·	102	108	90
CCc1ccc(NC(=O)CSc2nc3ccsc3c(=O)n2C(C)CC)cc1 (stereo not given)	·	103	115	87
Cc1ccc(Cn2ccnc2SCC(=O)Nc2ccc3c(c2)OCCO3)cc1	·	107	116	87
CC1(C)OC(=O)C(=C2C3C4CC5C3C(=C3C(=O)OC(C)(C)OC3=O)C3C2C4C53)C(=O)O1 (stereo not given)	-23	·	100	93
CC1CC(=O)c2cnc(NCCN3CCOCC3)nc2C1 (stereo not given)	-20	97	·	·
CCOC(=O)N1CCC(NC(=O)CCc2c(C)nc3c(c(C)nn3-c3ccc(C)cc3)c2C)CC1	-17	101	105	88
O=C(CCc1nnc2c3cc(-c4ccccc4)nn3ccn12)NC1CC1	-14	105	·	·
O=C(COCc1cc(-c2ccco2)on1)Nc1cccc(Cl)c1Cl	·	106	114	113
CCN(CC)C(=O)CSc1nc(C)cc(C)n1	-24	102	86	102
Cc1ccc(C)c(NC(=O)Cn2ncc3c(C)n(Cc4ccc(F)cc4)c(C)c3c2=O)c1	-1	107	114	91
Cc1cccc(NC(=O)c2sc(-n3nc(C)c(Cc4ccc5c(c4)OCO5)c3C)nc2C)c1C	12	98	105	96
Cc1cccn2cc(CNC(=O)c3ccccc3)nc12	·	101	85	82
Cc1nc2scc(-c3cccs3)c2c(=S)[nH]1	-7	·	73	87

Additional compounds follow.
SMILES	HCMV UL50-53 inh	GIV-Gai inh	Sa growth inh	Sa growth inh second temp
O=C(CNC(=O)C1CCCCC1)OCc1cc(-c2ccccc2)on1	4	·	97	93
Cc1cc(C)c(Cn2c(=O)n(CCCC(=O)NCc3ccc4c(c3)OCO4)c(=O)c3sccc32)c(C)c1	-11	107	93	90
COc1ccc(Nc2ccc3cc(S(=O)(=O)N4CCCC4)ccc3n2)cc1OC	·	105	82	74
Cc1c(Cl)cccc1-n1ncc(C(=O)N2CCN(C)CC2)c1C1CCN(C(=O)OC(C)(C)C)CC1	·	103	103	85
Cc1ccccc1C(=O)Nc1ccc(-c2nc3ccccc3o2)cc1	-1	92	97	86
CCCCNC(=O)CCC(=O)NNc1nc2ccccc2c2nc(-c3ccccc3)nn12	-13	96	100	94
Fc1cccc(F)c1CNCC1NCCc2ccccc21 (stereo not given)	-2	·	100	78
Nc1cc(Cl)ccc1C(=O)OCC(=O)c1ccc(F)cc1	-17	·	84	89
CC(C)(C)NC(=O)C(C)(C)Oc1ccc(Cl)cc1	-15	·	94	92

Compound activity as filed in PubChem BioAssay.
